Screens deposited in PubChem BioAssay by National Center for Advancing Translational Sciences (NCATS).
VDR inhibitor: blocks the human vitamin D receptor | P11473 | VDR-SRC2-3 peptide fluorescence polarization, 2 h | Potency, µM, for inactives: max response, negative = inhibition, most hits filed as inhibitors | 0.93% of 400,000 active | AID 504847; active = well fitted inhibition curve with a large enough effect; inconclusive = small, poorly fitted or top-dose-only effect, or another doubt; inactive = no such curve, though single readings can be large or run the other way; also: series mostly up to about 120 µM
Target sequence (P11473 whole entry, looked up): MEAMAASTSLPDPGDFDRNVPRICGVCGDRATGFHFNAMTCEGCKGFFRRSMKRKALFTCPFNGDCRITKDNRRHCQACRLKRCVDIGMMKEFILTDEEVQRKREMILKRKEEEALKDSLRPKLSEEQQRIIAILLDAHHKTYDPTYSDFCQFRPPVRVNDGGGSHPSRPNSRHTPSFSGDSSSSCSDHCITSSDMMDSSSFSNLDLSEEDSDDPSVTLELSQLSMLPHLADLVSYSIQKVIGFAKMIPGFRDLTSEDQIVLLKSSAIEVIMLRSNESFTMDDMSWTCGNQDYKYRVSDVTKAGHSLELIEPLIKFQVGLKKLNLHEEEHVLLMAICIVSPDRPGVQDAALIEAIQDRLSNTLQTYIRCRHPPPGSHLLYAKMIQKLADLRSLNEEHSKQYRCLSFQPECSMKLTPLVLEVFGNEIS
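Fluorescence polarization assay of small-molecule disruption of VDR binding to coregulator peptide SRC2-3. Compounds and controls pin-transferred, then read after 2 h incubation at ambient room temperature.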
* marks the source's active call; other numbers are inactive results; ? = inconclusive; & = joins results of further samples. % is scaled to controls: 0 for no effect and ±100 for the full control effect; potency is read from the fitted curve at half-maximal effect.

SMILES	VDR inhibitor
CN(c1ccccc1)S(=O)(=O)c1cc(C(=O)N2CCN(c3ncccn3)CC2)ccc1Cl	6.2%
CC(C)(C)C(=O)COC(=O)c1cc(-c2cccnc2)nc2ccccc12	-16.3%
COc1ccc(NC(=O)CSc2nc3ccccc3n2CC(=O)N2CCCCC2C)cc1 (stereo unspecified)	-0.2%
CC(=O)c1ccc(NC(=S)NNC(=O)NC2CCCCC2)cc1	-26.0%
O=C(OCCN1CCOCC1)c1ccc(OCCN2CCOCC2)cc1	7.8%
Cc1ccc(-n2nc3c(=O)n(CCCC(=O)NCc4ccccc4Cl)nc(C)c3c2C)cc1	-3.8%
NS(=O)(=O)c1ccc(NC2=CC(=O)C(=O)c3ccccc32)cc1	?
CC(=O)Nc1ccc(OC(=O)C(CCS(C)(=O)=O)N2C(=O)c3ccccc3C2=O)cc1 (stereo unspecified)	-14.2%
COc1ccc(/C=N/n2c(=O)[nH]c3c([nH]c4ccc(F)cc43)c2=O)cc1CN1CCCCC1	-15.9%
CC1(C)C(c2cccs2)=[N+]([O-])C2(CCCCC/C2=N\O)N1O (stereo unspecified)	-9.5%
COc1ccc(OC)c(C2N=C(N)Nc3nc4ccccc4n32)c1 (stereo unspecified)	-4.8%
Cc1cc(O)c(C(C)C)cc1NC(=O)c1ccccc1Cl	?
Cc1ccnc(NC(=O)c2cnc(Cl)c(Cl)c2)c1	1.4%
CC(C(=O)Nc1ccccc1C(=O)O)n1c(C(F)(F)F)nc2ccccc21 (stereo unspecified)	-4.9%
CCOc1ccc(S(=O)(=O)NCCC(=O)OCC(=O)c2ccc[nH]2)cc1	7.0%
O=C(c1ccccc1Cl)N1CCC(O)(c2cccnc2)CC1	0.3%
C=C(C)C(=O)Nc1cccc(C2=NOC3(C2)C[C@@H](C(N)=O)N(C(=O)C(=C)C)C3)c1 (stereo partly specified)	-14.8%
Cc1cc(C)c(N=C2CCCN2Cc2ccccc2)c(C#N)c1	-0.1%
CCCN1C(=O)c2ccccc2NC1c1ccc(O)c(OCC)c1 (stereo unspecified)	-5.3%
CCOC(=O)CSc1nc2cc(OC)ccc2cc1C#N	-0.3%
O=C(N/N=C/c1ccc(O)cc1)c1cc(-c2ccc3c(c2)OCO3)n[nH]1	8.0%
CC(C)N(c1nnc(N)s1)C(C)C	11.4%
COc1ccc(NC(=O)NNC(=O)c2ccccc2-n2cccc2)cc1OC	2.8%
O=C(COC(=O)c1ccc2ccccc2c1)NCCCc1ccccc1	-5.7%
Cc1cccc(NC(=O)CCc2ccccc2)c1C	-10.9%
O=C1OC[C@H]2CCCN2C(=O)[C@@H](CC(=O)N(CCO)Cc2ccccc2)C/C=C\C[C@H]1Cc1ccc(F)cc1	-11.1%
O=S(=O)(c1ccccc1)N1CCC(O)(CSc2ccc(Cl)cc2)CC1	-12.0%
CN1CCN(C2Cc3cc(F)ccc3Sc3ccc(Cl)cc32)CC1 (stereo unspecified)	-23.6%
CC1(c2nnc(-c3ccncc3)o2)CC(c2cccnc2)=NO1 (stereo unspecified)	-1.3%
CCc1nc2sc3c(N4CCCCC4)ncnc3c2c2c1CCCC2	2.5%
Cc1cc(C)c(C)c(S(=O)(=O)Nc2cccc(S(=O)(=O)Nc3ccccc3C(=O)O)c2)c1C	-28.0%
CCOc1ccccc1NC(=O)CSc1nc(N)c(C#N)cc1C#N	-16.3%
CCC(=O)Nc1ccc(NC(=O)c2ccc3ccccc3c2)cc1	1.1%
CC(C)c1ccc(CNCCSc2nnnn2C)cc1	1.6%
OC(CNCc1ccccc1)(c1ccc(F)cc1)c1ccc(F)cc1	12.9%
C#CCOCCOCCOCCNc1nc(N2CCN(C(=O)CCCCCCCCCCNC(=O)Cn3cc(C[C@@H](C)O)nn3)CC2)nc(N2CCN(C(=O)CCCCCCCCCCNC(=O)Cn3cc(C[C@@H](C)O)nn3)CC2)n1	-19.7%
CCN(CC)CCOC(=O)c1ccc(NC(=O)CCCN2C(=O)S/C(=C/c3ccc(OC)cc3)C2=S)cc1	7.2%
Cc1ccc(NC(=O)c2cc(S(=O)(=O)NC3CCCCC3)ccc2F)cc1Cl	-1.3%
COCCNC(=S)N1CCN(S(C)(=O)=O)CC1	-9.7%
CCN(CC)CCNC(=O)COc1ccc(Cl)cc1Cl	2.5%
Fc1ccc(-n2c(Cc3ccccc3)nnc2SCc2nc(-c3cccs3)no2)cc1	7.6%
Cn1/c(=N\NC(=O)c2ccccc2Cl)sc2ccccc21	?
C=CCn1c(C(CCCC)CC(C)O)n[nH]c1=S (stereo unspecified)	-10.0%
Cc1ccc(-n2nnnc2SCC(=O)NC2CCCc3ccccc32)c(C)c1 (stereo unspecified)	-1.4%
CCCn1c2ccccc2c2cnn(CC(=O)N(CC)c3cc(C)ccc3C)c(=O)c21	3.0%
C/C(=N\NC(=O)CN1CCN(Cc2ccccc2)CC1)c1ccncc1	7.3%
COc1ccc(N/C(N)=N/c2nc(C)c(Cc3ccccc3)c(=O)[nH]2)cc1	-7.1%
COc1cc(OC)cc(C(=O)Nc2cccc(-c3cn4cccnc4n3)c2)c1	-0.5%
COc1ccc(NC(=O)C2CCN(C(=O)Cc3ccccc3)CC2)cc1OC	9.5%
CCOc1ccc(CCNS(=O)(=O)c2c(C)n[nH]c2C)cc1OCC	-0.5%

Further compounds:
SMILES	VDR inhibitor
CCS(=O)(=O)c1ccc(C=NNc2nc3ccccc3o2)cc1	-8.6%
Cn1c(=O)c2cc(S(=O)(=O)NCCC(=O)NCc3ccccc3Cl)ccc2n(C)c1=O	15.5%
O=C(/C=C/c1c(Cl)nc2ccccn12)N1CCN(c2ccc(F)cc2)CC1	?
Cc1ccc(NC(=O)/C(C#N)=C/c2ccccc2C(F)(F)F)cc1	4.1%
Nc1ncc(S(=O)(=O)NCc2ccc(F)cc2)cn1	-4.1%
Cc1ccccc1-c1nc(CN2CCC(C(=O)NCCCN3CCCC3)CC2)c(C)o1	-3.2%
Cc1ccc(S(=O)(=O)Nc2cccc(C(=O)NCc3cccnc3)c2)cc1F	10.8%
O=C(c1cccs1)N1CCc2c([nH]c3ccccc23)C1c1ccc(Cl)cc1 (stereo unspecified)	-3.2%
CCN(CC)C(=O)[C@H]1C[C@H](CC(=O)NCc2ccc(OC)c(OC)c2)C(=O)N2CCc3c([nH]c4ccc(Cl)cc34)[C@]12C	-5.6%
COc1ccc(-n2nc(C(=O)NCC(=O)NCc3ccco3)c3ccccc3c2=O)cc1	-6.3%
COCC(=O)Nc1cc(Cl)c(OC)cc1OC	5.3%
CC(C)(C)OC(=O)N(CCc1ccccc1)Cc1ccc(OCc2cccc(NC(=O)C3CC3)c2)cc1	-26.2%
COc1ccc(N2CCN(CC(O)COCc3ccccc3)CC2)cc1 (stereo unspecified)	12.7%
CN(C)CC(O)CN1C(=O)NC(C)(C)C1=O (stereo unspecified)	0.1%
COc1ccccc1C(=O)COC(=O)Cc1ccccc1F	-4.3%
CNC1(C)[C@H]2CC[C@H](C2)C1(C)C (stereo partly specified)	-17.2%
COC1C(C)=C(C)C(=O)N1Cc1ccc(F)cc1 (stereo unspecified)	13.8%
Cc1cccc(C(=O)OCC(=O)NC(C)CCc2ccccc2)c1O (stereo unspecified)	-24.0%
CCn1c(CNc2ccc(OC)cc2)nnc1SCC(=O)N1CCCc2ccccc21	-4.0%
O=C(c1cccc(S(=O)(=O)N2CCCC2)c1)N1CCOCC1	-2.4%
Cn1c(C(N)=O)cnc1Sc1ncc(C(F)(F)F)cc1Cl	10.1%
CC(C)C[C@@H](CO)N1CCN(C)CCC1=O	-10.4%
Cc1nnc(-c2cnn(-c3ccccc3)c2N)n1Cc1ccccc1	-1.8%
CCOC(=O)c1ccccc1NC(=O)CSc1nc2[nH]ncc2c(=O)[nH]1	7.9%
Cc1nc(NC(=O)CSc2nnc(Cn3nnc4ccccc43)n2C)sc1C	-5.7%

Structures from the list above that have a tert-butyl group:
SMILES	VDR inhibitor
CC(C)(C)C(=O)COC(=O)c1cc(-c2cccnc2)nc2ccccc12	-16.3%
CC(C)(C)OC(=O)N(CCc1ccccc1)Cc1ccc(OCc2cccc(NC(=O)C3CC3)c2)cc1	-26.2%

The main list resumes, starting three compounds before the break.
SMILES	VDR inhibitor
Cc1nnc(-c2cnn(-c3ccccc3)c2N)n1Cc1ccccc1	-1.8%
CCOC(=O)c1ccccc1NC(=O)CSc1nc2[nH]ncc2c(=O)[nH]1	7.9%
Cc1nc(NC(=O)CSc2nnc(Cn3nnc4ccccc43)n2C)sc1C	-5.7%
CC1(C)Cc2c(C#N)c(NCCCO)nc(-c3ccccc3)c2CO1	-2.0%
CC(C)Oc1ccc(OCCn2c(S(=O)(=O)O)nc3c(N)ncnc32)cc1	-13.9%
COC(=O)N(NC(=O)C(O)(CCC(C)C)CCC(C)C)c1ccccc1	3.1%
CCCCOc1ccc(CSCCNC(=S)Nc2ccccc2)cc1	-6.5%
Cc1ccc(NC(=O)CCCn2c(=O)c3cccn3c3ccccc32)cc1C	3.6%
COc1cccc(CN2CC(C(=O)N(C)Cc3nc4ccc(F)cc4[nH]3)CCC2=O)c1 (stereo unspecified)	17.0%
COC(=O)c1sc2ncccc2c1OCc1c(Cl)cccc1Cl	7.0%
O=C(O)/C(=C\c1ccc(Cl)cc1)c1ccc(S(=O)(=O)N2CCCC2)s1	-9.8%
Cc1nnc(SCC(=O)N2CCC(c3noc4ccc(F)cc34)CC2)s1	10.4%
NC(=O)CSc1nnnn1-c1ccc2c(c1)OCCO2	11.8%
CC1(C)CC2(CCO1)C(Nc1ccccc1)=NC(=S)N2c1ccccc1 (stereo unspecified)	-12.8%
Cc1nn(CC(=O)Nc2ccc(F)cc2)c(=O)c2ccccc12	-23.1%
COC(=O)C1=C(C(=O)OC)[C@@H]2Nc3ccccc3[C@@]23C[C@@H](C(=O)OC)N(C(=O)c2cc(C)oc2C)C3=N1	-16.3%
CCN(CC(=O)Nc1ccccc1OC)C(=O)CN1C(=O)NC2(CCCC2)C1=O	-0.3%
O=C(c1ccco1)n1nc(-c2ccc(Cl)cc2)nc1NCc1ccccc1	2.2%
O=C(Nc1cccc(-c2cn3cccnc3n2)c1)c1cc(Br)ccc1Cl	3.7%
Cc1ccc(S(=O)(=O)NCCCOC(=O)Nc2ccncc2)cc1	-10.6%
Cc1nc([N+](=O)[O-])c(C(=O)OCc2ccccc2C#N)n1C	4.7%
CC1CCCCN1C(=O)CN1CCSc2ccccc21 (stereo unspecified)	0.5%
CCOC(=O)c1cc(-c2ccccc2)n(CCC(=O)N2CCN(c3ccccc3OC)CC2)c1C	-7.2%
CCN(CC)S(=O)(=O)c1ccc(S(=O)(=O)Nc2ccc3c(c2)oc2ccccc23)cc1	-3.2%
Cc1ccc(S(=O)(=O)N(C)CC(=O)NCC(c2ccco2)N(C)C)cc1 (stereo unspecified)	-28.7%
CCOc1ccc(NC(=O)c2ccc(NS(=O)(=O)c3cccc4cccnc34)cc2)cc1	-6.8%
O=C(COC(=O)/C=C/c1ccco1)NCc1ccc(Cl)cc1	-9.7%
Cc1nc2c(cnn2-c2ccccc2)c(=O)n1/N=C/c1ccccc1	6.9%
CCOC(=O)c1cc2c(N)c(C(=O)c3cc(C#N)c(SC)nc3C)sc2nc1C	-8.1%
CC(=O)Nc1cccc(C(=O)N/N=C/c2ccccc2F)c1	0.0%
COc1ccc(C2C(C(=O)N3CCN(c4ccccc4F)CC3)c3ccccc3C(=O)N2C)cc1 (stereo unspecified)	2.2%
CCn1c(C)cc2c(c1=O)C(c1ccccc1Br)C(C#N)=C(N)O2 (stereo unspecified)	13.0%
CCN(Cc1ccncc1)C(=S)Nc1ccc(Cl)cc1	4.0%
COc1ncnc(NS(=O)(=O)c2ccc(N)cc2)c1OC	8.9%&3.6%
COc1ccc([N+](=O)[O-])cc1NC(=O)C(C)NNC(=O)c1cccc([N+](=O)[O-])c1 (stereo unspecified)	2.1%
Cc1cccc(NC(=O)C(=O)NCCc2sc(-c3ccccc3)nc2C)c1C	6.6%
Nc1nc(N)c(N=Nc2ccc(SCC(=O)O)cc2)c(=O)[nH]1	-28.4%
COc1ccc(C(=O)N2CCN(C)C(=O)[C@@H]2C)cc1OC1CCN(C(C)C)CC1	4.6%
CC(C)n1c(SCCCc2ccccc2)nc2c1c(=O)[nH]c(=O)n2C	?
Cc1ccc(NC(=O)Cn2c(/C=C/c3ccccc3)nc3ccccc32)cc1C	-4.7%
COc1ccc(-c2nnc(SCc3nnc(-c4ccc(Cl)cc4)o3)n2-c2ccccc2)cc1	6.7%
COc1ccc(CCNc2ncnc3sc(C)cc23)cc1OC	0.2%
Cc1ccc(CSCC(=O)N(C)CC(=O)Nc2ccc(C)cc2)cc1	11.0%
O=C1[C@H]2[C@@H](c3ccc(Cl)cc3)N3C(=O)N(c4cccc(Cl)c4)C(=O)[C@@]3(Cc3ccc(Cl)cc3)[C@H]2C(=O)N1C1CCCCC1	-5.9%
COc1ccccc1N(CCC#N)C(=O)CSc1ccc2c(c1)OCCO2	-0.3%
Cc1ccc(S(=O)(=O)c2nc(-c3ccccc3F)oc2N2CC(C)OC(C)C2)cc1 (stereo unspecified)	-19.3%
O=C(Nc1ccccc1)NN1CC(=O)N(c2ccc(Cl)cc2)CC1=O	-6.8%

This is a subset. The share of hits here may be higher or lower than overall.
